Screening data from PubChem BioAssay.
ClpP mod = qHTS Assay for Activators of ClpP | Potency, µM (series often up to 57.5 µM), without a hit: top-dose activity change, negative = active | ATP-dependent Clp protease proteolytic subunit (Bacillus subtilis (strain 168)), P80244 | hit rate 1.9% among 340,000 | purified B. subtilis ClpP, FRET peptide cleavage, 20 min; active = well fitted falling curve with a large enough effect; inconclusive = small, poorly fitted or top-dose-only effect; inactive = no such curve, though single readings can be large or run the other way; also: potency is read from the fitted curve at half-maximal effect; the source files actives as falling curves though it sought activators and does not explain the sign; nearly all actives have a fitted effect of over 65% in size; many hits overshoot -100%
Target sequence (P80244 whole entry, looked up): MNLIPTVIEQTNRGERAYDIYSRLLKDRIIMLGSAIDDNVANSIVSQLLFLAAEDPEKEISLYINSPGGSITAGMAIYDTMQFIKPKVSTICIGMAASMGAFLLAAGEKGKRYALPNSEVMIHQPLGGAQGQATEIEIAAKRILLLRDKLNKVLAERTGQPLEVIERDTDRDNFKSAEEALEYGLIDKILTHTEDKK
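FRET quenching reversal measured ClpP activation: 10 microg/mL B. subtilis ClpP at pH 8 with the FRET-FV decapeptide, read at 430 nm after 320 nm excitation. The 20-min minus 0-min signal was scaled between DMSO/no-enzyme wells and ADEP (5.8 microM final).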
gsp ag = activates gsp, the McCune-Albright syndrome mutation. hit rate 0.13% among 340,000. AID 624287. Potency, µM (titrated, usually from 76.9 µM), without a hit: at the top dose activation (cAMP increase), most hits filed as activators. gsp mutant cells, cAMP HTRF, 30 min; control for the full effect not named in the record; active = well fitted activation curve with a large enough effect; inconclusive = small, poorly fitted or top-dose-only effect, or another doubt; inactive = no such curve, though single readings can be large or run the other way; cell line not stated here;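 also: phosphodiesterase inhibitor Ro 20-1724 added with compounds to block cAMP breakdown; potency is read from the fitted curve at half-maximal effect; nearly all actives have a fitted effect of over 60% in size; about a fifth of the inactives were tested at one dose only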
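Cells in DMEM/10% FBS with G418 were pretreated with compounds in DMSO plus […] (300 uM stock) for 30 min at 37C. cAMP was measured by HTRF (cAMP-d2 plus anti-cAMP antibody-K) after 30 min at room temperature.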
TRPML1 agonist = activates the human TRPML1 channel; Q9GZU1; TRPML1-expressing cells, Ca2+ dye fluorescence, FDSS; host cell line not named in the record; reference of the full effect not given here; activation, % (no concentration beside the values); hit rate 0.12% among 410,000; in the data active = activation above about 50%; inconclusive = about 30% to 50%; inactive = below about 30%; also: 0% is about no effect; the text of the record puts the active cut at 80%
Target sequence (Q9GZU1 whole entry, looked up): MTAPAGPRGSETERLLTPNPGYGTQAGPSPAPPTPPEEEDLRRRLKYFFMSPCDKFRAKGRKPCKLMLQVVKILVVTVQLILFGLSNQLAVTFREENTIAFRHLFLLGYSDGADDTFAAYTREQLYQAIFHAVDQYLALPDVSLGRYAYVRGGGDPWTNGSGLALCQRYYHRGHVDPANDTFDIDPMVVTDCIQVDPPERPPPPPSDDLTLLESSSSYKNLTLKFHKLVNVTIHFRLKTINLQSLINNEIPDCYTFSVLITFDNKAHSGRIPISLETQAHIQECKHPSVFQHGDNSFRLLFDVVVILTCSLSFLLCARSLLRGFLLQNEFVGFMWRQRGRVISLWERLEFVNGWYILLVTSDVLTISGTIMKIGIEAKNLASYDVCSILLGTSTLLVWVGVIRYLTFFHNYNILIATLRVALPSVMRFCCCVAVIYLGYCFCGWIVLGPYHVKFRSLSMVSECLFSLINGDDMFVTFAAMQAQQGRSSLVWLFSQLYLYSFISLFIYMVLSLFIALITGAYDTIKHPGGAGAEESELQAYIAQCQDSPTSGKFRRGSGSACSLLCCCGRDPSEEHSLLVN
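Agonist activity was taken from a 110 s kinetic Ca2+ dye read on the FDSS after pinning compounds onto TRPML1-DL cells. The cells were seeded at 1,500/well with Tet inducer, incubated about 16 h, then dye-loaded at room temperature.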
gsp antag = antagonists of gsp mutant (McCune-Albright syndrome). gsp-mutant cells, cAMP HTRF, 30 min; control for the full effect not named in the record. Potency, µM (top dose mostly 76.9 µM), for inactives: at the highest dose activity change, negative = inhibition, actives largely listed as inhibitors. hit rate 0.4% among 340,000. AID 624288; active = falling curve of any shape with a large fitted effect; inconclusive = falling curve, mostly with a smaller effect; inactive = flat or rising curve; cell line not stated here;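 also: intracellular cAMP measured with PDE inhibitor Ro 20-1724 present during compound exposure; potency is read from the fitted curve at half-maximal effect; % is scaled to controls: 0 for no effect and ±100 for the full control effect; nearly all actives have a fitted effect of over 65% in size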
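HTRF cAMP measurement after 30 min RT detection following 30 min, 37C compound treatment alongside […] (added as 300 uM solution) in G418-selected cells seeded at 2000/well and grown 16–24 h.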
TRPML1 blocker = blocks the human TRPML1 channel; TRPML1-inducible cells, Ca2+ dye fluorescence, FDSS; hits give low values; inhibition of EC80 agonist-evoked calcium signal; Q9GZU1; hit rate 0.02% among 390,000; AID 624415; activity change, negative = inhibition, % (test concentration not listed); in the data active means activity change below about -50%; inconclusive means about -30% to -50%; inactive means above about -30%;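 also: stimulus is agonist 54-4 at its EC80 concentration; % is scaled to controls: 0 for no effect and ±100 for the full control effect; compound concentration not given in the record; the text of the record puts the active cut at -80%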
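Calcium fluorescence in TRPML1-DL cells induced overnight with Tet: a 110 s read after compound pin addition, then a 110 s antagonist read after challenge with 54-4 at 4 uM final (EC80).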
Menin-MLL FL inh = menin-MLL binding inhibition, fluorescein peptide. Fluorescence polarization, fluorescein-MLL peptide displacement from menin. FP activity change, % at 61.4 µM. 290,000 tested, under 10 active; inconclusive = falling polarisation curve, or a change in total fluorescence; inactive = total fluorescence flat and polarisation flat or rising; no compound was filed as active; the % refers to the polarisation; negative = inhibition;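 also: % of control where 0% means no effect; inhibitors lower the polarisation; unlabelled MLL peptide was the positive control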
Active calls of the source: *; ? = inconclusive; nt = no result given; [ ] = remark or other dose. This is a random part of the collection; 2.1% or so of the library scored in one or more.

smiles	ClpP mod	TRPML1 blocker	TRPML1 agonist	gsp antag	Menin-MLL FL inh	gsp ag
Cc1ccc(/C=C/C(=O)OCC(=O)Nc2cccc(S(=O)(=O)N(C)C)c2)o1	-6.5%	-9.1	0.3	-7.2%	0.7	0.0%
CC(C)C[C@H]1CN=C(N(C)C)N1CCCCc1ccccc1	0.9%	-9.6	-0.4	12.2%	nt	nt
CC(=O)N1c2ccc(S(=O)(=O)N3CCCCCC3)cc2CC1C(=O)NC(C)C (configuration not stated)	1.8%	-14.0	-1.0	nt	nt	nt
COc1ccc(-c2nnc(-c3cc4ccccc4oc3=O)o2)cc1	-3.4%	-3.0	0.4	1.5%	2.0	-5.5%
CCCNC(=O)C1CCC(Cn2c(=O)c3sccc3n(Cc3ccccc3C)c2=O)CC1 (configuration not stated)	0.0%	2.6	-0.6	nt	nt	nt
CCOc1c(Br)cc(/C=C2\C(=O)N(CCC#N)N=C2C)cc1OC	1.9%	-11.5	1.8	-8.8%	0.6	3.6%
Cc1cc(C)n(C(=O)/C=C/c2cccs2)n1	nt	-17.3	1.4	2.6%	-0.6	21.4%
O=C(CSCc1cc(=O)n2nc(C3CC3)sc2n1)Nc1ccccc1Cl	1.0%	5.4	-1.0	-11.3%	nt	?
CCNC(=O)C1CC(=O)N(CCCc2ccccc2)C(=Nc2ccccc2)S1 (configuration not stated)	nt	-29.4	0.7	1.3%	1.2	-8.1%
Cc1cc(C)cc(N(CC(=O)N2CCC(C)CC2)S(=O)(=O)c2ccccc2)c1	-1.1%	22.9	1.6	-10.7%	-0.7	-4.3%
CN(C)c1ccc(NC(=O)CSCc2nc3c(nnn3Cc3ccc(F)cc3)c(=O)[nH]2)cc1	-0.2%	-15.1	0.6	?	?	1.7%
CCc1ccc(N2Cc3ccccc3C2)cc1	-10.4%	11.4	1.1	-1.8%	7.2	-24.8%
COc1ccc(NC(C)=O)cc1S(=O)(=O)Nc1ccc(OCc2ccccc2)cc1	nt	28.2	-0.1	-29.8%	nt	18.2%
O=C(O)c1ccc2c(=O)[nH]c(CN3CCOCC3)nc2c1	-2.9%	-8.6	-0.5	8.0%	2.9	-36.0%[inhibitor]
Cc1nn(C)cc1CNC(=O)c1cnn2c(C(F)F)cc(C3CC3)nc12	-4.2%	13.0	0.6	0.7%	-0.8	8.2%
CC(C)NC(=O)Nc1ccc2c(c1)C(=O)N([C@H](C)CO)C[C@@H](C)[C@@H](CN(C)C(=O)NC1CCCCC1)O2	4.3%	30.6	-0.4	9.5%	nt	nt
COc1cc(C(C)=O)ccc1OCC(=O)N1CCC(Cc2ccccc2)CC1	-10.6%	-0.3	-1.2	nt	nt	?
CC(C)c1ccc(O)c(NC(=O)c2ncn[nH]2)c1	1.4%	-0.6	-0.8	-11.9%	1.0	11.4%
Cc1nnc(SCc2nnc(-c3cccs3)o2)n1C	-2.1%	2.3	2.1	9.0%	2.7	-64.5%[inhibitor]
Cc1cc(OCc2cc(C(=O)N(C)CC3CCOCC3)no2)cc(C)c1Cl	-0.7%	5.2	1.1	-24.3%	-5.7	0.8%
CN1/C(=C\C=C(/C#N)C(=O)Nc2ccc(Cl)cc2)C(C)(C)c2ccccc21	0.4%	-1.9	23.6	9.1%	?	-3.3%
CC(C)C[C@H]1CN([C@@H](CC(C)C)CN2CCC[C@@H]2CN2C(=S)NC[C@@H]2Cc2ccc(O)cc2)C(=S)N1CC1CCCCC1	-2.2%	-8.2	-0.5	nt	nt	nt
CCOC(=O)N1CCC(NC(=O)c2cc(S(=O)(=O)N3CCCCC3)ccc2F)CC1	0.3%	-4.1	-0.3	-7.3%	0.9	11.7%
O=C(Nc1ccccc1N1CCCC1)c1cc(=O)[nH]c2ccccc12	-0.6%	-7.0	-1.0	-9.4%	nt	-3.1%
Cc1cc(C)cc(C(=O)N(c2ccccn2)C(C)c2ccco2)c1 (configuration not stated)	-0.6%	38.4	-0.3	4.0%	-0.7	-25.9%
Cc1nn(-c2ccccc2)c(C)c1NC(=O)COc1ccc([N+](=O)[O-])cc1	-2.9%	-2.8	0.8	-8.7%	nt	9.7%[15.4 µM]
CCC(Nc1nc(-c2ccccc2)nc2ccccc12)C(=O)O (configuration not stated)	-1.6%	1.4	-0.4	-9.5%	2.1	-50.8%[inhibitor]
O=C(/C=C/c1ccccc1)NCC(=O)N/N=C/c1ccccc1[N+](=O)[O-]	nt	5.8	1.4	-0.4%	2.3	-4.1%[15.4 µM]
CC(C)C(=O)N1CCC2(CC1)Oc1ccc(Cl)cc1C(=O)C21CC(c2ccc(Cl)cc2)=NO1 (configuration not stated)	-5.3%	60.6	0.1	-7.2%	-0.9	nt
COc1ccc(N2CCN(C(c3ccccc3F)c3sc4nc(-c5ccco5)nn4c3O)CC2)cc1 (configuration not stated)	0.2%	-2.6	2.4	nt	nt	nt
COc1cccc(C(=O)CN2C(=O)C(C)(C)Oc3ccc(C(=O)N4CCCCCC4)cc32)c1	-1.9%	10.6	-1.0	?	-2.2	0.0%
Cc1cc(NC(=O)c2cccc(Oc3ccccc3)c2)n[nH]1	1.1%	-19.6	1.0	-1.6%	-1.5	17.2%
O=C1CCC(C(=O)OCC(=O)Nc2ccccc2Br)=NN1	0.5%	-5.4	-0.1	nt	nt	6.4%
O=C(/C=C/c1cccs1)NCc1ccc2c(c1)OCO2	-1.1%	-5.5	-1.1	4.2%	1.0	-3.5%[15.4 µM]
O=C(NC1(C(F)(F)F)NC(=O)N(CCc2ccccc2)C1=O)c1ccccc1F (configuration not stated)	2.5%	-3.8	0.0	nt	nt	nt
CCc1ccc(OC)c(S(=O)(=O)NCc2cccs2)c1	-2.6%	-0.2	0.3	-4.0%	nt	29.0%
Cc1ccc(C(=O)NCCCN2CCOCC2)cc1S(=O)(=O)N1CCOCC1	1.0%	-3.8	-0.5	3.2%	nt	-100.3%[inhibitor]
O=C(O)C1CCCN1c1nc(C(F)(F)F)nc2ccccc12 (configuration not stated)	nt	-3.0	-0.8	6.3%	-0.2	11.8%
COc1ccc(OC)c(-n2c(-c3ccccc3)n[nH]c2=S)c1	-20.6%	-16.1	-0.3	-7.6%	5.5	-0.4%
Cc1ccccc1NC(=S)Nc1ccc2[nH]c(=O)[nH]c2c1	-3.4%	-5.9	-0.1	3.6%	0.4	16.0%
CCN1CCN(C(=O)CS(=O)Cc2nc(-c3ccc(OC)cc3)oc2C)CC1 (configuration not stated)	4.6%	1.5	-0.5	2.5%	0.6	-22.1%
COc1ccccc1C(c1nnnn1C(C)(C)C)N1CCN(Cc2ccncc2)CC1 (configuration not stated)	-2.2%	0.9	-0.2	8.3%	3.7	-37.1%[inhibitor]
O=C(Nc1ccc(Br)cc1)C1CCCN(C2=NS(=O)(=O)c3ccccc32)C1 (configuration not stated)	-1.1%	-15.2	0.2	-17.1%	nt	-40.5%[inhibitor]
COc1ccc(S(=O)(=O)Cc2ccc(C(=O)NCc3cccs3)o2)cc1	0.9%	1.5	-0.2	1.9%	-1.7	-29.5%
O=C(NC1CCN(C(=S)Nc2ccccc2)CC1)C1CCCCC1	nt	0.5	0.8	0.3%	-1.4	-12.0%
COc1ccc2[nH]c3c(c2c1)CCN1C(=O)C(CC(=O)NCCN2CCOCC2)C[C@H](C(=O)N2CCCCC2)[C@@]31C (some centres not stated)	-5.6%	30.1	-0.4	0.2%	nt	nt
Cc1cc(C)nc(NC(=O)Cc2ccc(Br)cc2)n1	2.3%	3.4	-0.3	12.7%	-0.2	7.1%
O=C(CN1CCSc2ccccc21)NCc1ccccc1F	-0.1%	-18.3	4.5	nt	nt	nt
CCCCc1nc(SCC(=O)Nc2ncccn2)n[nH]1	-0.6%	24.3	0.8	13.2%	4.5	-21.3%
COc1ccccc1OCC(=O)NCc1cccs1	-6.2%	-23.2	-0.4	15.2%	3.3	-15.3%

Just ClpP mod, Menin-MLL FL inh and TRPML1 blocker, for two of the compounds above:
mol	ClpP mod	Menin-MLL FL inh	TRPML1 blocker
COc1ccccc1C(c1nnnn1C(C)(C)C)N1CCN(Cc2ccncc2)CC1 (configuration not stated)	-2.2%	3.7	0.9
COc1ccc(S(=O)(=O)Cc2ccc(C(=O)NCc3cccs3)o2)cc1	0.9%	-1.7	1.5

(list continues)
smiles	ClpP mod	TRPML1 blocker	TRPML1 agonist	gsp antag	Menin-MLL FL inh	gsp ag
NC(=O)c1ccc(-c2ncc(-c3ccccc3)o2)cc1	-17.9%	12.3	1.4	-16.2%	5.1	-24.0%
Cc1cccc(C(=O)Nc2ccc(OCc3cc(=O)n4ccsc4n3)cc2)c1	-0.4%	-8.2	-1.1	nt	nt	nt
CCn1c(SCC(=O)NCc2cccs2)nnc1-c1ccco1	1.5%	30.8	2.9	8.9%	3.3	15.3%
CCC(=O)N1CCc2cc(S(=O)(=O)NC(Cc3ccccc3)C(=O)Nc3ccccc3C)ccc21 (configuration not stated)	-1.5%	1.2	1.6	nt	nt	nt
CN1CN=C(NS(=O)(=O)c2ccc([N+](=O)[O-])cc2)NC1	0.2%	14.6	0.6	2.6%	nt	?
O=C(O)COc1ccc2c3c(c(=O)oc2c1)CCC3	?	-3.3	-0.7	9.7%	2.0	24.6%
O=c1cc(N2CCN(c3ccc(F)cc3)CC2)[nH]c(=O)n1Cc1ccc(F)cc1	-5.2%	-5.4	-0.1	-8.9%	4.1	-59.7%[inhibitor]
O=C(OCN1C(=O)c2ccccc2C1=O)c1cccnc1SC(F)F	nt	-9.1	2.2	2.5%	-0.1	?
Cc1cc(C)c(S(=O)(=O)Nc2cccc(-n3cnnn3)c2)c(C)c1	0.5%	6.5	1.8	-0.3%	nt	5.3%
Cc1cc(C)c2c(NC(=S)Nc3ccccc3)n[nH]c2n1	9.8%	-7.2	-0.1	4.2%	-3.6	1.7%[15.4 µM]
CCc1cc2c(=O)c(-c3ccc4c(c3)OCCO4)c(C)oc2cc1OS(C)(=O)=O	-2.5%	2.0	-0.7	50.1µM*	4.0	-19.5%
CCOC(=O)c1c(C)[nH]c(C)c1S(=O)(=O)N1CCN(c2ccc(F)cc2)CC1	0.3%	49.9	0.1	4.5%	nt	-34.5%[inhibitor]
CNC(=O)CSc1nnc(-c2cccnc2)n1CCc1ccccc1	-16.3%	-16.6	0.9	7.9%	-1.0	-48.0%
Clc1cccc(CNc2ccn3nc(-c4cccs4)cc3n2)c1	4.2%	29.7	0.0	nt	nt	nt
Cc1c(Cl)cccc1NC(=O)c1cc(-c2cccc(Cl)c2)on1	-1.7%	5.3	-0.7	nt	nt	nt
